Calb FLC – C. albicans growth modulation with fluconazole | C. albicans CaCi-2 (fluconazole-resistant clinical isolate) + fluconazole, Alamar Blue growth, 48 h | growth inhibition, % (test concentration not listed) | hit rate 0.57% among 300,000 | AID 1979;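 active = most replicates above 75%; inconclusive = exactly half above 75%; inactive = most below 75%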;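 also: all wells also contain fluconazole at 8 µg/ml as a sub-toxic cotreatment; 0% = median of DMSO wells and 100% = median of geldanamycin control wells; wells of about 8 µL received 7.5 nL stock; the first replicate is given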
T cruzi repl – T. cruzi replication inhibition; T. cruzi beta-gal in NIH3T3, luminescence, 90 h; inhibition, % (no concentration beside the values); hit rate 1.4% among 300,000; AID 1885;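 active = mean inhibition across valid replicates above about 55%, limit read from the data; inconclusive = mean below that limit but half or more replicates reach it; inactive = mean below it, under half of replicates reach it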;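 also: signal also drops with host cell toxicity which is not excluded here; 0% = plate median of DMSO wells and 100% = zero luminescence signal; higher percent means less beta-gal luminescence so fewer parasites; stock transfer was 50 nL into about 50 µL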
AF4-AF9 inh – inhibitors of human MLL-AF4/AF9 interaction; P42568; AlphaScreen, biotin-AF4 peptide binding to FLAG-AF9; inhibition, % at 10 µM; hit rate 0.47% among 350,000;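 active = every replicate reaching a set inhibition limit, whatever the replicate mean, cut at about 25% in these data; inconclusive = mean inhibition reaches that limit but some replicates miss it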;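 also: 0% = plate neutral control median and 100% = total signal loss; the record names both 10 and 1 µM as test concentration; the first replicate is given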
LANA-H2A inh – blocks KSHV LANA binding to histone H2A/H2B. Q9QR71. cell-free LANA-H2A/H2B peptide, fluorescence polarization. inhibition, % (test concentration not listed). hit rate 0.6% among 320,000; in the data active = inhibition mostly above about 10%, no sharp cut-off; inactive = mostly below about 6.7%;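 also: stock transfer was 7.5 nL into about 10 µL; 0% = median of vehicle wells and 100% = median of positive control wells; one replicate is shown; the record names a cut of 25% in any replicate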
Target sequence (Q9QR71 whole entry, looked up): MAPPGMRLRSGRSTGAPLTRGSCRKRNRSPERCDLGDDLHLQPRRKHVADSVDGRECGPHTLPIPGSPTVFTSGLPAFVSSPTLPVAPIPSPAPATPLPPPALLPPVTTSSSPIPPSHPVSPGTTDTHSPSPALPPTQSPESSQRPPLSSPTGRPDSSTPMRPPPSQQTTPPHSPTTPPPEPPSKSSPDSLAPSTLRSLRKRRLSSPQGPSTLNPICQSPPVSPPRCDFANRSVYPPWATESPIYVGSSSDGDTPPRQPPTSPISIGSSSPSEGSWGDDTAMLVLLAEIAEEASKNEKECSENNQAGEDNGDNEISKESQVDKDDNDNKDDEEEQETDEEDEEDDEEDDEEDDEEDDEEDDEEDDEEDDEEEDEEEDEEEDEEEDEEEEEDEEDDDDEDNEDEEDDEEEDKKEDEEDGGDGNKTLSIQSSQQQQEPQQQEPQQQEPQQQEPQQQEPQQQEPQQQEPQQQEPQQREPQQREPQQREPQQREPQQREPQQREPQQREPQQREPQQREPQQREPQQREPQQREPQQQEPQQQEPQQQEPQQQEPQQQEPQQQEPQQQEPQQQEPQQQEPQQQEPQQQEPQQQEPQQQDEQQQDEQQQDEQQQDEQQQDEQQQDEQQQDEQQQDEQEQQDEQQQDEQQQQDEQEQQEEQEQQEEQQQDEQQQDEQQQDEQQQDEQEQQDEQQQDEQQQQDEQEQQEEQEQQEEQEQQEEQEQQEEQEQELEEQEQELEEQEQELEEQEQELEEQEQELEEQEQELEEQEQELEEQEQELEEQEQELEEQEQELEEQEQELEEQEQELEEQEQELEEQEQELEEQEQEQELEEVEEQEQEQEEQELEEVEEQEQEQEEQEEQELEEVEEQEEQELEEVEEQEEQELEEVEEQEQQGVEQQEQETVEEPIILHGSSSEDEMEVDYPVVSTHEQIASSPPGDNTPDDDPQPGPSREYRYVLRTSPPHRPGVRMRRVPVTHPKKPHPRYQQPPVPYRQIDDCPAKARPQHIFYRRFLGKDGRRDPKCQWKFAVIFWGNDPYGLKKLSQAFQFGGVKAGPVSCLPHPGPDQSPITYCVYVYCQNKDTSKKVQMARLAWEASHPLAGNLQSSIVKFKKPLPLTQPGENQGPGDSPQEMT
RanGTP-Imp inh – disruptors of Ran-importin-beta complex formation – biochemical, FRET, CFP-Ran, YFP-importin-beta, homogeneous, primary screen. AID 2216. inhibition, % (no concentration beside the values). hit rate 1.1% among 300,000. cell-free CFP-Ran/YFP-importin-beta FRET ratio;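 active = most replicates above 15%; inconclusive = exactly half above 15%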;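 also: 0% = DMSO wells and 100% = Ran loaded with GDP instead of GTP; wells of about 40 µL received 100 nL stock; the first replicate is given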
Beta cell apopt – blocks beta cell apoptosis | INS-1E cytokine-induced death, ATP luminescence, 48 h; percent of positive-control rescue, neutral wells zero | protection from apoptosis, % (concentration not given with the values) | hit rate 0.8% among 300,000 | AID 435005;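 active = all replicates at 75% or more, or half of them and the mean; inconclusive = half reach 75% but not the mean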;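 also: 0% = cytokine-treated negative control wells and 100% = positive control rescue; higher means more ATP so stronger rescue from cytokine killing; wells of about 40 µL received 100 nL stock; the first replicate is given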
Vif A3G – HIV-1 Vif–A3G interaction blockers – biochemical, TR-FRET, GST-Vif 1-94, biotin-A3G peptide, dose response retest, primary screen (AID 1117319). TR-FRET GST-Vif / biotin-A3G peptide binding; higher % means a stronger effect; test concentration not given here; strong numbers were not always called active. inhibition, %, or IC50 in µM where a hit was titrated. hit rate 0.57% among 260,000;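 active = above the screen mean plus three standard deviations and confirmed in dose response; inconclusive = results disagree or hit not tested in dose response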;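 also: Vif residues 1-94 fused to GST binding biotinylated APOBEC3G peptide 110-148; 0% = full assay without inhibitor and 100% = GST in place of GST-Vif; retest series ran down from 100 µM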
A1 inh – inhibitors of the anti-apoptotic protein A1, read as caspase activation; MEF A1-2A-BIM cells, Caspase-Glo 3/7 luminescence, 3 h; percent of clofoctol response, vehicle zero; caspase activation, % (concentration not given with the values); hit rate 0.066% among 330,000;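 active = over half of replicate activation scores above 10%, or exactly half above 10 with the replicate mean above 10; inconclusive = replicate mean below 10 yet half the replicates above 10; inactive = over half of replicates below 10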;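 also: wells of about 30 µL received 50 nL stock; many hits fall short of the cut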
* hit, by the source's call; i = inactive; ? = inconclusive; / = not tested or not shown; & = joins results of further samples.

SMILES	Calb FLC	T cruzi repl	AF4-AF9 inh	LANA-H2A inh	RanGTP-Imp inh	Beta cell apopt	Vif A3G	A1 inh
COc1ccc2c(c1OC)C(=O)OC2Nc1nc(-c2cc3cc(Br)ccc3oc2=O)cs1 (stereo not drawn)	2	-9	0.2	2.3	-0.9	9	-2%	-8.3
COC(=O)c1ccc(COC(=O)C(CCSC)NC(=O)COc2ccccc2)cc1 (stereo not drawn)	-8	-5	3.1	-0.2	-3.1	/	-3%	-0.9
Cn1c(CSc2ncccn2)nnc1SCC(=O)N1CCCc2ccccc21	1	9	/	-1.1	5.2	0	1%	-1.7
Cn1nnnc1SCC(=O)Nc1ccc(S(=O)(=O)N2CCOCC2)cc1	-21	-13	0.4	-5.2	2.6	-1	-8%	0.5
CCCCCN(C(=O)CCC(=O)OC(C)C(=O)c1ccccc1)c1c(N)n(CCCC)c(=O)[nH]c1=O (stereo not drawn)	-17	-1	-0.3	0.1	0.1	3	-2%	1.4
COc1ccc2nc(SCC(=O)Nc3cc(C)on3)[nH]c2c1	-10	-11	/	i	0.0	0	2%	0.6
CCCCNC(=O)COC(=O)c1ccccc1F	0	-2	3.5	2.6	2.5	-2	3%	-0.3
COc1ccc(N2CCN(C(=O)CC3NC4CCCCC4NC3=O)CC2)cc1 (stereo not drawn)	-1	-14	/	2.2	2.1	-1	2%	0.7
O=C(Nc1cccn2ncnc12)c1ccc(Cl)cc1Cl	-3	12	/	1.0	3.3	-1	-13%	-0.4
O=C(OCC(=O)N1CCCC1)c1ccc(S(=O)(=O)N2CCOCC2)cc1	-2	-16	-0.8	-3.8	5.7	-3	-7%	1.1
O=C(CSc1nc2ccccc2s1)Nc1ccc(Cl)c(S(=O)(=O)N2CCOCC2)c1	5	-9	/	-2.0	1.9	-11	/	-0.7
COc1ccc(-c2nnc(SCCC(=O)O)n2-c2ccccc2)cc1	15	-13	/	2.5	0.0	-5	8%	0.2
COc1ccc(-c2noc(-c3ccccc3-c3ccccc3)n2)cc1OC	0	27	/	-0.8	0.2	5	1%	-2.0
CCC(c1nnnn1CCOC)N1CCN(C(=O)c2ccco2)CC1 (stereo not drawn)	13	-4	/	-0.3	3.4	-6	0%	0.4
Cc1ccc2nc(C)cc(Cl)c2c1	-9	-15	-1.2	3.1	-0.7	5	-7%	0.6
CCSc1nnc(NC(=O)C(CC)Oc2ccccc2)s1 (stereo not drawn)	-6	-2	-38	-2.4	2.7	-1	25%	-0.7
Cc1ccc(-n2ncc3c(N4CCCC4)ncnc32)c(C)c1	36	-6	/	-4.4	-4.7	/	-2%	0.0
Cc1cc(C(=O)N/N=C/c2cc(Cl)cc([N+](=O)[O-])c2O)c2ccccc2n1	79*	24	7.9	1.7	-3.7	5	/	0.3
COc1ccc(-n2c(SC3CCOC3=O)nc3ccccc32)cc1 (stereo not drawn)	-1	-5	/	-1.1	-0.9	5	12%	-1.0
CC(C)[C@H](NC(=O)c1ccccc1Cl)C(=O)OCc1cc(=O)n2cc(Br)ccc2n1	-1	-23	-2.1	-3.5	-6.6	4	-4%	0.3
COc1ccccc1-n1cc(CN2CCN(C3CCCCC3)C(CCO)C2)cn1 (stereo not drawn)	-9	3	-2.0	0.1	0.7	2	-14%	-0.2
COC(=O)c1ccccc1NC(=O)CN(Cc1ccc(Cl)cc1)S(C)(=O)=O	32	-3	2.6	/	-0.3	/	-1%	/
Cc1cc(OCC(=O)NNC(=O)c2cccnc2)cc(C)c1Cl	-10	/	-3.6	-0.6	/	-2	/	0.2
CCCNC(=O)c1ccc(Cn2cc(-c3ccc(OC)cc3)nc2C(C)N)cc1 (stereo not drawn)	-13	32	5.0	-3.5	2.9	3	/	-3.1
Cc1ccc(S(=O)(=O)CCC(=O)OCC(=O)Nc2cc(F)ccc2C)cc1	-3	-4	15	-6.9	/	2	/	0.7
COc1ccc(CCNC(=O)CN(C)S(=O)(=O)c2cccc3nsnc23)cc1OC	-4	-15	/	0.5	2.9	2	-2%	1.3
Cc1ccc(NC(=S)C2=C(O)c3sccc3N(C)S2(=O)=O)cc1	8	-16	/	2.6	81*	/	10%	-1.1
NC(=O)CN1C(=O)NC(c2ccccc2)(c2ccccc2)C1=O	0	-6	-13	-1.0	-0.1	-2	/	1.1
Cc1ccc(Cn2c(/C=C/c3ccco3)nc3ccccc32)cc1	-11	18	/	3.0	5.1	2	23%	-0.2
O=C(Nc1cccc(-n2cnnn2)c1)c1cc(Cl)nc(Cl)c1	6	-7	2.2	-0.5	2.6	8	/	-0.5
Cc1ccc(-n2[nH]c(C)c(/C=N/N3C(=O)c4cccc5cccc(c45)C3=O)c2=O)cc1	25	-9	0.6	3.0	-1.4	/	0%	-5.6
COC(=O)C1=C(C)N=C2SCCC(=O)N2C1/C=C/c1ccccc1 (stereo not drawn)	-4	-17	/	-5.3	-5.1	0	-6%	-0.3
C=CCN(CC=C)C(=O)Cn1cnc([N+](=O)[O-])n1	-2	49	/	-6.4	1.0	/	-7%	0.0
CCOC(=O)c1cc(-c2ccccc2)nn1Cc1cc(CC)no1	-11	17	-9.0	-1.2	2.5	-21	/	-0.5
Cn1cc(C(=O)NCc2ccccc2F)cn1	0	-21	/	-2.6	0.6	0	11%	0.9
CCc1nccn1S(=O)(=O)c1ccc(Br)cc1Br	23	1	/	2.3	3.0	0	-8%	0.3
CCOC(=O)c1cc2c(nc1N)CC(C)(CC)OC2 (stereo not drawn)	7	-20	-4.9	5.1	1.7	-7	7%	0.5
CCCOc1ccc(NC(=O)Cc2ccc(S(=O)(=O)N3CCOCC3)s2)cc1OCCC	1	21	2.5	4.7	-3.9	0	-10%	0.9
Cc1ccc2[nH]c(C(=O)O)c(NC(=O)CN3CCN(c4cccc(C)c4C)CC3)c2c1	-4	-2	/	-4.9	3.7	4	0%	0.5
O=S(=O)(c1ccc(Br)cc1)N1CCC2(CC1)OCCO2	7	1	-0.8	1.3	3.6	-1	5%	-0.1
CCCCn1c(N)c(N(CCOC)C(=O)COC(=O)c2cc(CC)c(C)s2)c(=O)[nH]c1=O	/	-7	-8.2	0.2	1.1	-3	10%	0.3
COCCN(C(=O)C1=COCCO1)c1c(N)n(Cc2ccccc2)c(=O)[nH]c1=O	-3	-21	0.4	-1.2	-0.2	-1	-9%	0.1
C=CCn1c(C#N)c(N)sc1=N	1	-3	/	-1.4	-2.1	2	13%	-0.5
Cc1ccc(S(=O)(=O)n2ccc3cccnc32)cc1	-12	3	/	-1.0	?	-8	6%	0.9
N#CCCN(C(=O)COC(=O)CCc1nc2ccccc2c(=O)[nH]1)c1ccccc1F	/	/	0.6	-4.3	/	2	-17%	-0.1
C[C@H](NC(=O)c1nc[nH]c1C(=O)N1CCN(C(=O)OC(C)(C)C)CC1)c1ccccc1	/	/	-3.6	-7.2	/	-2	/	-1.4
CCC(=O)Nc1sc2c(c1C#N)CC(C)(C)NC2(C)C	-18	-3	/	0.4	-2.2	0	1%	-0.3
CCOCCCn1c(=S)[nH]c2cc3c(cc2c1=O)OCO3	-8	-4	/	2.8	2.0	3	22%	1.8
COCCn1c(SCCN2CCCCC2)nc2ccccc2c1=O	-26	5	/	-2.9	-4.0	0	2%	0.1
Cc1nc2c(-c3ccc(F)cc3)c(C)nn2c(C)c1CCC(=O)N1CCN(c2ccc(F)cc2)CC1	8	38	-1.2	7.2	0.0	-2	-1%	-0.3
O=C1NC[C@H](Cc2ccc(O)cc2)N(CCc2cccc3ccccc23)C1=O	4	-19	-3.3	8.6	0.3	0	/	0.6
COc1ccccc1C(=O)NC(=O)COC(=O)c1cccc(NC(C)=O)c1	-4	-13	-11	-1.1	4.1	/	/	-0.3
O=S(=O)(c1ccc(Cl)cc1)N1CCN(Cc2cccnc2)CC1	-19	1	4.3	1.5	3.5	-11	/	0.4
CC(=O)C1=C(C)NC(=O)NC1c1ccc2c(c1)OCO2 (stereo not drawn)	/	13	1.2	2.7	-12	-8	/	0.3
CCc1ccc(N(CC(=O)O)S(=O)(=O)c2c(C)noc2C)cc1	-1	-5	0.2	-8.0	-4.1	-5	2%	0.2
CCO[C@@H]1OC(C(=O)NCc2ccccc2)=C[C@H](c2csc3ccccc23)[C@H]1CCCO	18	18	2.5	2.6	-2.2	0	4%	-0.7
Cc1nccn1CC(=O)N/N=C/c1ccc(O)c(O)c1	19	3	/	1.0	-3.2	-1	23µM*	-1.6
C[C@H](NS(=O)(=O)c1ccc2c(c1)OCCCO2)C(=O)N1CCN(c2ccc(F)cc2)CC1	/	/	2.0	2.8	/	2	/	0.7
CN(C)S(=O)(=O)c1ccc(Cl)c(NC(=O)COC(=O)/C=C/c2ccco2)c1	2	-6	-0.3	-2.1	5.5	/	15%	-0.4
Cn1c([N+](=O)[O-])cnc1COC(N)=O	/	4	1.7	-2.5	0.2	-2	?	0.6

Further compounds.
SMILES	Calb FLC	T cruzi repl	AF4-AF9 inh	LANA-H2A inh	RanGTP-Imp inh	Beta cell apopt	Vif A3G	A1 inh
OCc1cc(C(O)CNCCCCCCOCCCCc2ccccc2)ccc1O (stereo not drawn)	-1	32&15	-11	-4.7&-2.4	-3.7&1.8	-1&7	6%	-0.1&0.7
NC(=O)Cc1nc(-c2ccc([N+](=O)[O-])cc2)cs1	7	-9	1.4	0.1	-3.9	0	6%	-0.1
CCOC(=O)[C@@H]1[C@H]2COc3cc(OC)ccc3[C@H]2N2C(=O)N(c3ccc(C(F)(F)F)cc3)C(=O)[C@@]12C	1	10	-58	-4.3	1.9	-1	/	0.9
CCN(CC(=O)NCc1ccccc1Cl)CC(=O)Nc1c(F)cccc1F	8	1	4.9	14	4.3	1	-7%	-0.3
O=C1CCCN1CCCNS(=O)(=O)c1ccc(Cl)c(C(=O)N2CCOCC2)c1	-1	-20	/	-0.9	1.2	0	1%	0.5
CCN(CC)CCN(C(=O)c1ccc2ccccc2c1)c1nc2cc3c(cc2s1)OCO3	-3	34	5.4	-3.0	3.6	-2	/	0.0
Cc1ccc2[nH]c3nc(NN)nnc3c2c1	10	-2	-4.8	4.1	6.2	/	/	0.6
CCOc1ccc(CCNC(=O)COn2nnc3ccc(S(=O)(=O)N4CCOCC4)cc32)cc1OCC	/	-2	0.9	-0.3	2.9	-6	0%	0.0
CS(=O)(=O)N1CCN(c2cccc(Cl)n2)CC1	-3	-3	/	-2.1	-0.3	/	-6%	1.9
Cc1cccc(NC(=O)C[n+]2ccc(N(C)C)cc2)c1	0	-11	-2.9	1.2	3.6	1	5%	-0.3
COC(=O)CSc1n[nH]c(-c2cccnc2)n1	-2	-22	-3.3	-4.6	0.2	-8	5%	0.1
CC(C)(C)C(=O)Cn1ncc(Cl)c(Cl)c1=O	-9	-4	-3.0	/	3.4	/	-2%	/
Cc1ccccc1NC(=O)CCCNC(=O)c1ccc(Cl)cc1	-1	-18	-1.9	-1.3	2.3	-5	5%	0.2
O=C(COc1ccccc1Cl)NCc1nc(-c2ccccc2)no1	-5	-5	0.5	0.4	-0.3	/	-6%	-0.8
CC1CCc2sc3ncn4nc(C(=O)NCc5ccco5)nc4c3c2C1 (stereo not drawn)	?	25	/	1.9	120*	-4	3%	1.1
COc1ccc(N(CC(=O)N2CCCCCC2)S(=O)(=O)c2c(C)[nH]c(=O)[nH]c2=O)cc1	0	-11	-0.6	0.7	-0.2	1	3%	-0.1
